Rango complex inh – prevents formation of the Rango-importin beta complex; Q14974; Rango CFP/YFP FRET sensor + importin beta, 45 min; Potency, µM (highest dose often 92.2 µM), for the others: at the highest dose inhibition of complex formation; 340,000 tested, 0.031% active; AID 540263; active = rising FRET ratio curve, often small or poorly fitted; inconclusive = mostly compound fluorescence or quenching in the first reads; inactive = flat curves in all reads;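 note: potency is the fitted concentration of half-maximal effect; 0% = DMSO wells and 100% = buffer wells lacking importin beta; nearly all actives have a fitted effect of over 15% in size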
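FRET biosensor (snurportin 1 IBB flanked by EYFP and cerulean), 50 nM, with compound 5 min, then 0.125 microM importin beta in PBS, 1 mM DTT, 0.02% Tween-20, 0.1% BSA. CFP/YFP ratio read after 45 min at room temperature; pre-read flags interference.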
Rango release inh – prevents RanGTP from dissociating the Rango-importin beta complex; Biochemical FRET Rango-importin beta, RanGTP-induced dissociation; Potency, µM (doses to about 46.1 µM), for inactives: at the top dose activity change, negative = inhibition; 340,000 tested, 0.071% active; AID 540253; active means falling FRET ratio curve, often poorly fitted, with flat reads before Ran was added; inconclusive means other falling curves, or compound fluorescence or quenching; inactive means flat or rising ratio curve;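 note: potency is the fitted concentration of half-maximal effect; % of control where 0% means no effect; nearly all actives have a fitted effect of over 45% in size; -100% = wells without RanGTP and RCC1; the record marks most hits as doubtful in a second field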
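Rango (0.1 uM)–importin beta (0.25 uM) complex; RanGTP-RCC1 trigger; 45 min RT; CFP/YFP FRET read.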
miR-21 reporter – raises the signal of a miR-21 reporter | HeLa miR-21 FLuc reporter, luciferase, 48 h | Potency, µM (series often up to 38.3 µM), for inactives: at the highest dose reporter change, positive = more light | 340,000 tested, under 10 active | AID 2288; active = well fitted rising curve with a large enough effect; inconclusive = small, poorly fitted or top-dose-only effect; inactive = no such curve, though single readings can be large or run the other way;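 note: % of control where 0% means no effect; miR-21 action dims this reporter so a rising signal means less miR-21 action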
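Luminescence from a firefly luciferase reporter carrying a miR-21 binding site downstream, stably expressed under a CMV promoter in HeLa cells that make miR-21 endogenously, reports miRNA modulation after 48 h compound exposure up to approximately 40uM final.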
GLA inh pH 4.5 – inhibitors of human alpha-galactosidase A at pH 4.5. P06280. purified enzyme, 4-MU-alpha-Gal fluorescence, pH 4.5. activity change, negative = inhibition, % at 105 µM. 230,000 tested, under 10 active. AID 1467; inconclusive = small, poorly fitted or top-dose-only inhibition, or a rising curve; inactive = flat fitted curve, though single readings scatter; no compound was filed as active;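 note: 0% = full activity with enzyme and -100% = basal without enzyme; dose as in the result columns while the protocol names 77 µM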
Target sequence (P06280 whole entry, looked up): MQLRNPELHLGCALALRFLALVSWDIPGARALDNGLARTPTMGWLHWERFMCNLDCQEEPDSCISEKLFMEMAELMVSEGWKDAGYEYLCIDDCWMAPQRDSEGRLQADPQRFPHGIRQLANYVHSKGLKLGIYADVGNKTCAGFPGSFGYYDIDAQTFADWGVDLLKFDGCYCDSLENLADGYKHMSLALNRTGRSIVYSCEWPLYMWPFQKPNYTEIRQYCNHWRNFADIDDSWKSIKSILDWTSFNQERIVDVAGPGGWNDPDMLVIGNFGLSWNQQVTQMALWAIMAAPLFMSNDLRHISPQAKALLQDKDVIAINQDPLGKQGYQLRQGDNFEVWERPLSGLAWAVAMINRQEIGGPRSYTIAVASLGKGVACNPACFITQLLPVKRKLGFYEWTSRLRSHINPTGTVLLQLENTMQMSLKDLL
* = called active by the depositor; ? = inconclusive; . = not tested or not shown; & = joins results of further samples.

SMILES	Rango complex inh	Rango release inh	miR-21 reporter	GLA inh pH 4.5
Cc1cccc(NC(=O)C2CC2c2ccccc2)c1C (stereo not drawn)	-5.7%	3%	-21%	.
Cc1cccc(COc2ccc(/C=N/NC(=O)c3nnn(-c4nonc4N)c3CN3CCCCC3)cc2)c1	0.7%	-11%	-33%	.
CCCC(C(=O)Nc1cccc(S(=O)(=O)N2CCCC2)c1)c1ccccc1 (stereo not drawn)	6.4%	10%	.	.
N#CC(C(=O)Nc1cccc(Cl)c1)=C1Nc2ccccc2N1	-1.6%	-9%	-10%	-10
CCOc1ccc(Br)cc1S(=O)(=O)Nc1ccc(Cl)c(S(=O)(=O)N(C)C)c1	-1.4%	-10%	-8%	-4
CCC(Sc1nc(N)c(NC(=O)c2ccco2)c(=O)[nH]1)C(=O)O (stereo not drawn)	-0.3%	3%	1%	.
CCOc1cc(CNCCO)cc(Br)c1OCc1cccs1	1.7%	10%	17%	2
O=C1CCN(S(=O)(=O)c2ccc(Cl)cc2)N1	-0.5%	1%	-3%	-24
O=C(Nc1ccc(Br)cc1Br)c1cccc2c1C(=O)N(C1CCCCC1)C2	-5.6%	-7%	0%	.
O=C(NN=C1CCCCCCCCCCC1)c1cccc(S(=O)(=O)N2CCOCC2)c1	-1.0%	4%	-1%	2
CCCCNC(=S)N1CCN(Cc2ccc3c(c2)OCO3)CC1	-0.1%	-5%	0%	9
CCOC(=O)CNc1c(-c2ccc(O)cc2)nc2ccccn12	1.6%	3%	-16%	-3
Cc1cc(C)c(NC(=O)CSc2nncn2-c2cccnc2)c(C)c1	-0.6%	-10%	3%	3
Cn1c(=O)c2c(nc(N3CCOCC3)n2CCNC2=NCCC2)n(C)c1=O	4.8%	7%	.	.
Cn1nnnc1Sc1ncnc2scc(-c3cccc4ccccc34)c12	2.9%	0%	.	.
CCCn1nc(Oc2nc(NCC)nc(NCC)n2)ccc1=O	-2.2%	?	-7%	7
O=C1NC(c2ccccc2)(C(F)(F)F)SC2=CCCCCN12 (stereo not drawn)	-1.1%	1%	1%	1
COCc1c(Br)c(C)nc(OCC(=O)O)c1C#N	-1.6%	1%	-7%	5
CCOc1cc(C2NC(=O)NC2=O)ccc1O (stereo not drawn)	-0.1%	-5%	-1%	.
COc1ccc(S(=O)(=O)N2CCc3ccccc3C2)cc1	-2.8%	1%	-6%	-7

6 structures out of the list, ordered by molar mass, highest first:
SMILES	Rango complex inh	Rango release inh	miR-21 reporter	GLA inh pH 4.5
O=C(Nc1ccc(Br)cc1Br)c1cccc2c1C(=O)N(C1CCCCC1)C2	-5.6%	-7%	0%	.
CCCC(C(=O)Nc1cccc(S(=O)(=O)N2CCCC2)c1)c1ccccc1 (stereo not drawn)	6.4%	10%	.	.
CCCCNC(=S)N1CCN(Cc2ccc3c(c2)OCO3)CC1	-0.1%	-5%	0%	9
COCc1c(Br)c(C)nc(OCC(=O)O)c1C#N	-1.6%	1%	-7%	5
N#CC(C(=O)Nc1cccc(Cl)c1)=C1Nc2ccccc2N1	-1.6%	-9%	-10%	-10
Cc1cccc(NC(=O)C2CC2c2ccccc2)c1C (stereo not drawn)	-5.7%	3%	-21%	.

Next structures follow:
SMILES	Rango complex inh	Rango release inh	miR-21 reporter	GLA inh pH 4.5
COc1ccc(NC(=O)c2cc(Br)c(Br)s2)cn1	-0.9%	9%	-12%	-13
Cc1ccc(C(=O)N/C(=C/c2ccco2)C(=O)NCc2ccco2)cc1	?	6%	-1%	.
CC(=O)NC1C(OCc2ccccc2)OC2COC(C)(C)OC2C1O (stereo not drawn)	-0.3%	5%	-1%	-1
COc1ccccc1N1C(=O)C2C(C(=O)c3ccccc3)=NN(c3ccccc3OC)C2C1=O (stereo not drawn)	?	?	0%	-6
COc1ccc(S(=O)(=O)N2CCOCC2)cc1NC(=O)C1COc2ccccc2O1 (stereo not drawn)	-1.4%	2%	.	.
CCOc1ccc(CN2CCNC(=O)C2CC(=O)NCC2CCOCC2)cc1 (stereo not drawn)	-0.2%	17%	3%	.
CCCCc1c(C)nc2c(OC)cccc2c1SCC(=O)O	-2.2%	0%	-6%	-2
CCn1c(SCC(=O)NC(C)(C)C)nnc1-c1ccncc1	-0.5%	-14%	-2%	9
O=C(COc1ccc(F)cc1)N1CCc2ccccc2C1	-1.4%	2%	-33%	-12
COCCN(C(=O)CCC(=O)Nc1ccccn1)C(C(=O)NC(C)C)c1ccc(Cl)cc1 (stereo not drawn)	1.0%	9%	-1%	.
COc1ccc(NC(=O)C(c2ccc(OC)cc2)N(C)C(=O)Cc2cccs2)cc1 (stereo not drawn)	3.2%	19%	0%&-14%	-5
CC(C)c1ccc(-c2nc3ccccc3s2)cc1	-3.2%	-15%	?	-2
CCOC(=O)N1CCN(C(=O)c2cc(Cl)c(Cl)cc2C(=O)O)CC1	-3.3%	1%	-1%	-7
O=C(NCc1ccc2c(c1)OCO2)C1CCC(=O)N1C1CCCC1 (stereo not drawn)	3.9%	1%	0%	1
Cc1ccc(-c2c[n+](CC(=O)c3ccc(Br)cc3)c3n2CCCCC3)cc1	1.9%	?	?	4
CNC(=O)CN1C(=O)NC2(CCc3ccccc3C2)C1=O (stereo not drawn)	1.7%	1%	-3%	4
Cc1ccc(OCC(=O)Nc2ccccc2-c2ccccc2)cc1	2.9%	-20%	-43%	4
COc1ccc(N(C(=O)C2COc3ccccc3O2)C(C(=O)NC2CCCCC2)c2ccccc2)cc1OC (stereo not drawn)	1.9%	-3%	-7%	-3
CCOC(=O)C1C(=O)OC2(CCCCC2)C1C(=O)OCC (stereo not drawn)	-0.6%	-6%	3%	2
COc1cccc(C=NCCNC(=O)c2nonc2N)c1O	3.4%	3%	-3%	-4
Cc1ccc(OCC(=O)NCCN2CCCC2)cc1	0.4%	15%	-4%	1
O=C(c1ccc2c(c1)OCO2)N(c1ccccc1)C1C=CS(=O)(=O)C1 (stereo not drawn)	-0.1%	7%	-4%	1
COc1ccc(Cl)cc1C(=O)Nc1nc(C)cc(C)n1	-1.8%	-11%	1%	.
CCCCn1c(N)c(N(CCOC)C(=O)COC(=O)Cc2cccc(OC)c2)c(=O)[nH]c1=O	4.9%	-2%	.	.
CCN1CCN(c2nc3c(C)cccn3c(=O)c2/C=C(\C#N)S(=O)(=O)c2ccc(Cl)cc2)CC1	?	?	-3%	-1
N#Cc1cc([N+](=O)[O-])ccc1NC(=O)COC(=O)C1CC2CCCC(C1)C2=O (stereo not drawn)	3.0%	-7%	.	.
O=C(CSc1nccc(-c2cccs2)n1)Nc1ccccc1	0.1%	15%	-10%	-2
CCNC(=O)COC(=O)c1cc(-c2ccccc2)nn1-c1ccccc1	2.7%	7%	-4%	4
COc1ccc(CC(=O)NCC(=O)NCc2cc(=O)n(C)c(=O)n2C)cc1	1.4%	-1%	0%	.
Nc1ccc2nc(-c3ccc(Cl)cc3)[nH]c2c1	?	?	-67%	4
O=C(NCCc1ccc(F)cc1)c1cc([N+](=O)[O-])ccc1N1CCOCC1	-4.5%	5%	.	.
Cc1ccc2nc(N(CCN(C)C)C(=O)c3cc(Cl)sc3Cl)sc2c1	-3.1%	-2%	-20%	-1
NC(CSS(=O)(=O)O)=NCCC12CC3CC(CC(O)(C3)C1)C2	0.0%	11%	-13%	-3
CCCCCN(C(=O)CCC(=O)OCC(=O)N1CCCC(C)C1)c1c(N)n(CCCC)c(=O)[nH]c1=O (stereo not drawn)	2.0%	1%	-2%	.
Cn1c(Cc2ccccc2)nnc1SCC(=O)N1CCCCC1	-0.2%	8%	-6%	-1
Cc1cc(C(=O)Nc2nnc(C(F)(F)F)s2)cs1	?	1%	-20%	7
CCc1ccc(N2CC(C(=O)NC3CC3)CC2=O)cc1 (stereo not drawn)	0.4%	1%	-8%	.
CC(=O)Nc1nnc(SCC(=O)N2CCc3ccccc32)s1	1.4%	4%	-5%	.
COc1ccc(C2=NN(C(=O)CCC(=O)O)C(c3ccccc3)C2)cc1 (stereo not drawn)	2.1%	12%	-4%	.
Cc1cc(C)cc(Nc2cc(C)nc3nc(C)nn23)c1	-2.8%	-13%	-15%	0
COc1ccccc1N(C)S(=O)(=O)c1ccc(Cl)c(C(=O)Nc2ccccc2N2CCOCC2)c1	1.2%	-10%	.	.
COc1ccc(Cl)cc1NC(=O)CSc1nnc(-c2ccco2)o1	-3.4%	0%	3%	.
Cc1cccc(OCC(O)CNC(=O)c2ccccc2C(=O)O)c1 (stereo not drawn)	-5.1%	-10%	.	.
C/C(=N\NC(=O)c1n[nH]c2c1CCC2)c1cccs1	-2.7%	0%	?	1
Cc1n[nH]c(=S)c2nn(-c3ccccc3)c(C)c12	.	.	-8%	5
COc1ccc(NC(=O)CC2C(=O)N(c3ccc(OC)cc3)C(=S)N2NC(=O)c2cccc(F)c2)cc1 (stereo not drawn)	1.9%	-5%	-17%	0
COCC(C)NC(=O)c1cccc([N+](=O)[O-])c1 (stereo not drawn)	1.8%	-4%	0%	9
Nc1c(Cl)ncnc1N/N=C/c1ccccn1	?	?	-27%	-5
COc1ccccc1-c1cc(C(=O)N/N=C\c2cn(C)nc2C)c2ccccc2n1	-0.2%	0%	0%	-28
Cc1csc2nc(COC(=O)c3ccc(Cl)c([N+](=O)[O-])c3)cc(=O)n12	-1.5%	3%	.	.
Cc1ccc(NC(=O)C2(S(=O)(=O)c3ccc(Cl)cc3)CC2)cc1	-1.7%	47%	-4%	.
CN1C(=O)C(O)(CC(=O)c2ccc(F)cc2)c2cc(Br)ccc21 (stereo not drawn)	0.2%	-2%	17%	6
COc1ccc(S(=O)(=O)N2CCCC(C(=O)NCC3CCCO3)C2)cc1OC (stereo not drawn)	2.4%	-3%	0%	.
COc1ccccc1NS(=O)(=O)c1ccc(N2CCOCC2)c(NC(=O)c2ccco2)c1	2.3%	-1%	-10%	-4
O=C1NC(=O)/C(=C\c2ccc(Sc3ccc(Cl)cc3)o2)N1	3.6%	2%	-8%	0
CC(/C=C/c1ccccc1)=N\NC(N)=S	0.5%	-6%	-10%	5
O=C(CCc1nc(-c2ccccc2Cl)no1)Nc1cccnc1	5.1%	-5%	-4%	.
CCN(CC(=O)Nc1cc(Cl)ccc1C)C(=O)c1ccc2c(c1)NC(=O)C(C)S2 (stereo not drawn)	?	7%	.	.
CCOC(=O)N1CCN(C(=O)C2CCCN(S(C)(=O)=O)C2)CC1 (stereo not drawn)	6.4%	9%	0%	-1
CCSc1nnc(NC(=O)/C=C/c2ccc3c(c2)OCO3)s1	.	.	-11%	9

More structures
SMILES	Rango complex inh	Rango release inh	miR-21 reporter	GLA inh pH 4.5
Cc1ccccc1SCC(=O)NCCCn1ccnc1	-2.7%	-7%	1%	.
O=S(=O)(CC(O)COc1ccc(Br)cc1)c1ccccc1 (stereo not drawn)	-0.5%	13%	-3%	7
O=C(NCc1ccccc1)c1onc(CSc2ccc(F)cc2)c1C(=O)NCc1ccccc1	-1.6%	6%	.	.
COc1ccc(S(=O)(=O)N(C)CC(=O)NCc2ccccc2)cc1OC	0.1%	-2%	-6%	.
CCN(CC)c1ccc2c(c1)CCCN2	.	.	?	4
CC(Oc1ccc(Br)cc1Cl)C(=O)Nc1ccncc1 (stereo not drawn)	10%	5%	12%	.
Cc1nnc(NC(=O)CSCc2ccccc2)s1	1.5%	-8%	1%	8
CC(C)CC(=O)c1c[nH]c(C(=O)NCC2CCCO2)c1 (stereo not drawn)	-2.1%	-5%	-4%	2
O=c1c2ccccc2[nH]c2ccc(F)cc12	?	?	-14%	?
CCc1nnc(NC(=O)CSc2nnc(-c3ccc(NS(=O)(=O)c4ccccc4)cc3)o2)s1	?	8%	-7%	3
COc1ccc(CCN(C(=O)/C=C/C(=O)O)C2CC(=O)N(c3ccccc3)C2=O)cc1 (stereo not drawn)	1.6%	16%	0%	-9
COc1ccc(S(=O)(=O)NCCCCNS(=O)(=O)c2ccc(OC)cc2)cc1	2.2%	0%	0%	-6
CC(=O)c1ccc(N2CCN(c3ncc(C(F)(F)F)cc3Cl)CC2)cc1	-1.5%	-13%	-8%	-24

This is a subset; count on the stated rates, not on these rows.
